eIF4H FP inh – inhibitors of RNA binding by human eIF4H | AID 2012 | actives 0.94% (n = 290,000) | eIF4H fluorescence polarization binding assay | Q15056 | inhibition, % at 35 µM;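 active = 50% or more with normal probe brightness, or confirmed in later tests; about a fifth of its hits are not listed in these tables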;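 also: calls also rest on retests at 20 µM and on dose response follow-up; 0% = protein and probe with vehicle and 100% = probe without protein; strong numbers were not always called active; many hits fall short of the cut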
HIV Env fusion – inhibitors of HIV Env-mediated cell fusion; HeLa-JRFL Env/CEM21 cell fusion, luciferase; inhibition, % at 12.3 µM; actives 1.1% (n = 360,000);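 active = mean replicate inhibition score of at least 50 and every replicate individually at or above 50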;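 also: 0% = plate neutral controls and 100% = maraviroc near 300 nM; one replicate is shown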
UUG fidelity – alters start codon recognition fidelity in yeast; S. cerevisiae UUG-firefly luciferase reporter, luminescence/redox ratio; activity score, % at 18.7 µM; actives 0.13% (n = 350,000); AID 602363;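 active = replicate mean at a twofold rise or more, about +100% in these data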;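 also: firefly luciferase made from a UUG start codon reports start codon fidelity; reporter light over untreated wells divided by growth signal over untreated wells; some hits fall short of that in this replicate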
PABP polyA inh – blocks human PABP binding to poly(A) RNA | P11940 | fluorescence polarization | inhibition, % at 35 µM | actives 1% (n = 290,000) | AID 2014;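 active = 50% or more with normal probe brightness, or confirmed in later tests; about a fifth of its hits are not listed in these tables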;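 also: calls also rest on retests at 20 µM and on dose response follow-up; controls were probe without protein and protein plus probe with vehicle; some compounds called inactive have numbers as strong as hits; many hits fall short of the cut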
Rce1 inh – inhibitors of yeast Ras-converting enzyme | Q03530 | yeast membranes, quenched prenylated peptide cleavage fluorescence | calls only | actives 0.27% (n = 290,000) | AID 2563;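 active = fall in fluorescence gain of 50% or more versus controls, with final raw signal at or below 3038400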;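 also: plate controls were neutral control wells for no effect and wells lacking membranes for full effect; tested at 10 µM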
Target sequence (Q03530 whole entry, looked up): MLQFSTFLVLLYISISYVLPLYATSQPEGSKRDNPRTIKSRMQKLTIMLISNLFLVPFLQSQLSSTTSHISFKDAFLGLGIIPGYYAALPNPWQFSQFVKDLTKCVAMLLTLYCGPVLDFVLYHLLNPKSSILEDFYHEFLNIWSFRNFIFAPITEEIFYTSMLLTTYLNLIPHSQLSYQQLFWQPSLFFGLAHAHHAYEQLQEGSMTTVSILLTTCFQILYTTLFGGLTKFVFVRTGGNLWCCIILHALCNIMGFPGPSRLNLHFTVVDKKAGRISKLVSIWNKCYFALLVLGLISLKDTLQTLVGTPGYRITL
MT1-MMP act inh – inhibitors of human MT1-MMP activation; HT1080 RFP-PRO-GFP cells, GFP/RFP ratio fluorescence, overnight; percent of plate control window, DMSO zero; P50281; actives 0.061% (n = 360,000); GFP/RFP ratio change, % at 20 µM;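 active = GFP/RFP ratio change of at least 30% with cell ATP level not reduced by more than half and red fluorescence within 50% of control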; also: strong numbers were not always called active
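system = RFP-PRO-GFP reporter HT1080 cells | dosing = 20 µM single dose, 1% DMSO | timing = overnight cell settling, then overnight compound exposure, 37 °C, 5% CO2 | read-out basis = GFP/RFP fluorescence ratio | controls = DMSO and RFP-L50D-GFP cell wells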
CSC inhib – blocks cancer stem cells. cancer stem cell-like cells viability, luminescence. inhibition, % at 7.5 µM. actives 1.1% (n = 300,000);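 active = mean at 75% or more and at least half the replicates too; tested in HMLE shEcad cells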;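 also: 0% = median of negative and 100% = median of positive control wells; the first replicate is given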
MT1-MMP act inh RFP – second read-out of MT1-MMP act inh, no call of its own (marks repeat the call); RFP signal change, %; measured here: RFP expression control read;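 0 = vehicle wells; hits needed this value within 50% of zero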
Active calls of the source: *; i = inactive; . = no result given; [ ] = dose if it differs, or a comment. Some of the compounds tested; the hit share may differ from the screen's.

Every second line gives: eIF4H FP inh, HIV Env fusion, UUG fidelity, PABP polyA inh, Rce1 inh, MT1-MMP act inh, MT1-MMP act inh RFP, CSC inhib
- CCc1ccc(S(=O)(=O)Nc2cc3c(cc2N2CCCCC2)n(C)c(=O)c(=O)n3C)cc1
  0, 8, -3, 7, i, 8, 0, 10
- O=S(=O)(NCc1cccs1)c1ccc(Br)s1
  1, ., ., 3, i, ., ., -8
- CC(=O)c1c(C(C)=O)c(C)n(NC(=O)c2ccccc2Cl)c1C
  -6, 2, -20, 2, i, -2, 7, -5
- Cc1ccc(C(=O)OCC(=O)N2CCC(C)CC2)cc1S(=O)(=O)N1CCCCC1
  -2, ., -11, -7, i, 4, -6, -10
- O=C(COC(=O)CN1C(=O)NC2(CCCC2)C1=O)NCc1ccc(Cl)cc1Cl
  ., 4, ., ., ., 2, 2, -3
- Cc1csc(NC(=O)CSc2nnc(Cn3c(=O)sc4ccccc43)n2-c2ccccc2)n1
  9, -2, -15, -10, ., 2, -3, -21
- CC(NC(=O)c1ccc(OC2CCN(Cc3ccccn3)CC2)cc1)c1nccs1 (configuration not stated)
  -2, -23, -22, 7, i, -1, -2, 0
- CN(CCc1ccccc1)C(=O)c1cccc(NC(=O)Cc2cccc(NC(=O)C3CCCN(C(=O)c4ccccc4)C3)c2)c1 (configuration not stated)
  ., 20, -9, ., ., -8, -27, .
- Cc1ccc(C)c2c1cc(C)c1nnc(SCC(=O)Nc3cccc(C(=O)O)c3)n12
  -4, -16, ., -1, i, 1, 3, -8
- COCCn1c(=O)[nH]c2cc(C(=O)N3CCN(c4ccc(Cl)cc4)CC3)ccc2c1=O
  -12, -15, -23, 9, i, -2, -22, .
- NC(Cc1ccc(F)cc1)c1csc(Nc2nncc3ccccc23)n1 (configuration not stated)
  ., 59*, -5, ., ., -2, -1, .
- COc1ccc2cc(CCNC(=O)c3ccc4c(c3)OCO4)c(=O)[nH]c2c1
  -7, -10, -16, -1, i, 2, -2, -12
- COc1cc(-n2c(=O)c3ccccc3n(CC(=O)c3ccc(F)cc3)c2=O)cc(OC)c1OC
  -6, 3, -5, -9, i, 0, -2, 4
- COc1ccc(-c2coc3cc(OC4OC(CO)C(O)C(O)C4O)ccc3c2=O)cc1 (configuration not stated)
  -4, -84, -14, 3, i, -1, 1, -4
- CCN(CC)c1ccc(/C=N/NC(=O)c2ccccn2)cc1
  -4, -55, -51, -1, i, 0, -1, 22
- C=CCN(c1cccc(C(F)(F)F)c1)S(=O)(=O)c1cccc(C(=O)OCC(=O)NC(N)=O)c1
  -7, ., -3, 7, i, 3, 0, 12
- O=C(CCc1nc2ccccc2c(=O)[nH]1)NNC(=O)c1ccc(F)cc1
  ., 1, -16, ., ., -3, 0, -12
- O=C(CCSCCC(=O)NN=Cc1ccccc1)NN=Cc1ccccc1
  ., -1, -23, ., ., 3, -4, .
- COc1cccc(CNc2ccc(N3CCC(C)CC3)cc2)c1OC
  -3, 10, -36, 4, i, 12, 9, -1
- CC(C)c1cn(CC[C@@H]2CC[C@H](NS(=O)(=O)c3ccc(F)cc3)[C@@H](CO)O2)nn1
  ., 7[16.7 µM], -3, ., ., 1, 10, .
- COc1ccc(OC)c(C2C3=C(COC3=O)Nc3cc4c(cc32)OCO4)c1 (configuration not stated)
  0, -63, -24, -3, i, 27, -1, .
- CC1=CCC(C(=O)O)C(C(=O)Nc2cccnc2)C1 (configuration not stated)
  -4, -6, ., -2, i, -3, 3, 3
- COc1ccc(C(=O)C=Cc2cccs2)c(O)c1
  ., -64, -34, ., ., 4, 3, .
- Cc1ccc(N2CCN(S(=O)(=O)c3ccc(-n4cnnn4)cc3)CC2)c(C)c1
  ., 8, -6, ., i, 4, -10, 6
- Cc1cccc(C)c1NC(=S)NCCSc1ccc(Cl)cc1
  -12, -11, -40, -13, i, -2, -8, 30
- C=CCSc1nccc(-c2cc(Cl)sc2Cl)n1
  6, ., ., -4, i, 2, 1, 1
- Cc1cc(C)c(NC(=O)CNC(=O)COC(=O)CN2C(=O)NC3(CCCC3)C2=O)c(C)c1
  ., -12, -11, ., i, 1, 0, 4
- COc1cc(-c2nc3cnccn3c2NC(C)(C)CC(C)(C)C)ccc1O
  8, 31, -7, 5, i, 5, -7, -12
- CC(C)(C)OC(=O)NC(CO)c1cn([C@@H](Cc2cc3ccccc3[nH]2)C(=O)N2CCN(C(=O)OC(C)(C)C)CC2)nn1 (some centres not stated)
  -2, -17, -6, 2, i, -1, 4, 1
- COc1ccc(-c2csc(Cc3nnc(N4CCOCC4)n3-c3ccccc3)n2)cc1
  8, ., -8, -7, i, 1, -2, -12
- COc1ccc(S(=O)(=O)N2CCCCC2)cc1NC(=O)c1ccc([N+](=O)[O-])o1
  -5, -6, -14, -10, i, 1, -10, 42
- CCC1CN(C(=O)NCc2ccc(F)cc2)c2cc(Cl)ccc2O1 (configuration not stated)
  6, 6, -17, -8, i, -1, -2, -1
- COc1ccccc1C(=O)OCC(=O)Nc1cccc(S(=O)(=O)NC2=NCCCCC2)c1
  ., ., -12, ., ., 1, 3, -8
- COc1ccc(CN(C(=O)c2cnccn2)C(C(=O)Nc2ccc(F)cc2)c2ccccc2)cc1 (configuration not stated)
  -4, ., -3, 6, ., 3, -1, -12
- O=C(c1ccc(OC2CCN(Cc3ccccn3)CC2)cc1)N1CCC[C@H]1CO
  -9, 6, -11, -11, ., 1, 2, 1
- O=C(NCCc1ccc(F)cc1)C(=O)NCC1CCCN1S(=O)(=O)c1ccccc1 (configuration not stated)
  ., 22, -16, ., i, 2, -5, 21
- CC(C)Cn1c(N)c(C(=O)COC(=O)c2ccc(Br)cc2)c(=O)n(C)c1=O
  ., -5, -12, ., ., -2, -20, 0
- CC(C(=O)Oc1ccc2c(c1)OCO2)N1C(=O)c2ccccc2C1=O (configuration not stated)
  4, ., ., -1, i, ., ., .
- COc1ccc(CC(=O)Nc2c3c(nn2-c2cccc(Cl)c2)CS(=O)C3)cc1 (configuration not stated)
  -2, ., -21, 16, i, 2, 0, .
- COc1cccc(CNC(=O)CCCc2c[nH]c3ccccc23)c1
  -3, -37, -8, -5, i, 6, 0, 6

Other structures.
smiles	eIF4H FP inh	HIV Env fusion	UUG fidelity	PABP polyA inh	Rce1 inh	MT1-MMP act inh	MT1-MMP act inh RFP	CSC inhib
Cc1ccc(C)c(N(C)C(=O)c2ccc3c(=O)n4c(nc3c2)CCCCC4)c1	-9	-14	-5	11	i	1	-1	.
CCc1ccccc1OCCCOc1ccc(OC)cc1	2	.	4	7	i	5	-2	15
CN(C)CCCN(C(=O)c1ccc(S(=O)(=O)N2CCCCCC2)cc1)c1nc2cc3c(cc2s1)OCO3	.	31	-34	.	.	-1	2	.
CC(=O)Oc1ccccc1C1=NN(C(C)=O)C(c2ccccc2)C1 (configuration not stated)	0	-3	.	-6	i	1	1	-5
Cn1c(C(=O)NCCN2CCN(c3ccccc3F)CC2)cc2c(=O)n(C)c3ccccc3c21	6	1	-7	2	i	3	0	-19
Cc1ccc2nc(NC(=O)Cc3cccs3)sc2c1	-9	-145	-20	6	i	-2	-14	12
CCOC(=O)c1sc(NC(=O)CSc2nnnn2-c2ccc(C)cc2)c(C(=O)OCC)c1C	-15	4	-5	12	i	-6	-7	.
CCCCN(C(=O)NC(=O)Nc1ccc(C)cn1)S(C)(=O)=O	-10	-6	.	-10	i	-5	6	4
O=C(COc1ccc2c(c1)oc(=O)c1ccccc12)NCCN1CCOCC1	-5	1	-8	-2	i	2	0	11
CC1CCN(C(=O)CNC(=O)c2cccc(OC(F)F)c2)CC1	1	10	27	1	i	-3	2	-3
COc1ccc(C(=O)Nc2cc(OCc3ccccc3)c(Cl)cc2Cl)cc1	0	.	-11	4	i	2	-2	-2
CCc1nnc(NS(=O)(=O)c2ccc(N/C=C/C(=O)c3ccc(OC)cc3)cc2)s1	2	3	-22	15	i	-3	-2	-2
CCOc1ccc(NC(=O)NNC(=O)c2ccc(Cl)cc2Cl)cc1	5	5	.	0	i	1	4	-7
CCc1ccc(NC(=O)C2CCCN2c2nn3c(=O)cc(C)nc3s2)cc1 (configuration not stated)	-4	-12	-14	-6	i	1	6	-10
CN(C)c1nc(N(C)C)nc(N(C#N)CN2C(=O)c3ccccc3S2(=O)=O)n1	-3	12	-9	-4	i	-1	-2	0

Part of the list above in a different format:
> CCc1ccccc1OCCCOc1ccc(OC)cc1
  eIF4H FP inh = 2
  HIV Env fusion = .
  UUG fidelity = 4
  PABP polyA inh = 7
  Rce1 inh = i
  MT1-MMP act inh = 5
  MT1-MMP act inh RFP = -2
  CSC inhib = 15

> CCOc1ccc(NC(=O)NNC(=O)c2ccc(Cl)cc2Cl)cc1
  eIF4H FP inh = 5
  HIV Env fusion = 5
  UUG fidelity = .
  PABP polyA inh = 0
  Rce1 inh = i
  MT1-MMP act inh = 1
  MT1-MMP act inh RFP = 4
  CSC inhib = -7

> CCc1ccc(NC(=O)C2CCCN2c2nn3c(=O)cc(C)nc3s2)cc1 (configuration not stated)
  eIF4H FP inh = -4
  HIV Env fusion = -12
  UUG fidelity = -14
  PABP polyA inh = -6
  Rce1 inh = i
  MT1-MMP act inh = 1
  MT1-MMP act inh RFP = 6
  CSC inhib = -10

> COc1ccc(C(=O)Nc2cc(OCc3ccccc3)c(Cl)cc2Cl)cc1
  eIF4H FP inh = 0
  HIV Env fusion = .
  UUG fidelity = -11
  PABP polyA inh = 4
  Rce1 inh = i
  MT1-MMP act inh = 2
  MT1-MMP act inh RFP = -2
  CSC inhib = -2

Additional results:
smiles	eIF4H FP inh	HIV Env fusion	UUG fidelity	PABP polyA inh	Rce1 inh	MT1-MMP act inh	MT1-MMP act inh RFP	CSC inhib
Nc1nc(N)c2cc(S(=O)(=O)c3ccc4ccccc4c3)ccc2n1	.	11	-12	.	.	-3	-25	.
CCOC(=O)CCCNC(=O)CCNC(=O)c1ccc(OCCC(C)C)cc1	2	13	3	-4	i	1	0	-2
O=S(=O)(NC1CCCCC1Sc1ncccn1)c1ccc(Cl)cc1 (configuration not stated)	2	13	.	9	i	1	3	.
Cc1ccccc1C(=O)Nc1nc(=S)ss1	0	.	-17	10	i	-3	2	30
COc1cccc(NC(=O)C2CCN(S(=O)(=O)c3ccc4c(c3)NC(=O)C(C)S4)CC2)c1 (configuration not stated)	-15	-3	-12	-2	i	3	-16	2
CN(CCc1ccccn1)C(=O)CC1C(=O)NCCN1Cc1cccc(F)c1 (configuration not stated)	28	-7	-2	7	i	1	7	-12
O=C(CN1CCOCC1)Nc1ccc2c(c1)CCC2	-6	-9	-11	-4	i	-1	-2	-10
Cc1sc2nnn(CC(=O)N3CCN(C(=O)c4ccco4)CC3)c(=O)c2c1C	.	26	2	.	i	-5	1	-8
Cc1ccccc1OCC(=O)OCC(=O)Nc1ccc2c(c1)OCO2	.	.	-32	.	.	-2	-1	-23
COc1cccc(/C=C/C(=O)N2CCN(c3n[nH]c(=O)[nH]c3=O)CC2)c1OC	-3	-20	5	5	i	-1	2	-7
Cc1ccccc1/C=N/n1c(-c2ccccn2)n[nH]c1=S	5	-99	-12	3	i	-1	-2	-12
CCC(C)C(=O)Nc1nc2ccc(OC)cc2s1 (configuration not stated)	1	-59	-15	6	i	-6	-11	-1
